Env fusion inh: inhibitors of HIV Env-mediated cell fusion | inhibition, % at 12.3 µM | HeLa-JRFL Env/CEM21 cell fusion, luciferase | 360,000 compounds, 1.1% hits;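 active means mean replicate inhibition score of at least 50 and every replicate individually at or above 50; inconclusive means only one of the two criteria met; inactive means mean below 50 and not all replicates reaching 50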;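 further: 0% = plate neutral controls and 100% = maraviroc near 300 nM; one replicate is shown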
UUG fidelity: modulators of start codon recognition fidelity in yeast. S. cerevisiae UUG-firefly luciferase reporter, luminescence/redox ratio. activity score, % at 18.7 µM. 350,000 compounds, 0.13% hits. AID 602363;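 active means replicate mean at a twofold rise or more, about +100% in these data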;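 further: firefly luciferase made from a UUG start codon reports start codon fidelity; reporter light over untreated wells divided by growth signal over untreated wells; some hits fall short of that in this replicate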
The depositor's hits bear a star; ? = inconclusive; [ ] = another dose, or the depositor's remark. Some of the compounds tested; rates above refer to the full screens.

Sequence of screens: Env fusion inh	UUG fidelity
> C[C@@H]1CN([C@H](C)CO)C(=O)c2cc(C#CCc3ccccc3)cnc2O[C@H]1CN(C)C(=O)C1CC1
    -14.5[16.7 µM]	-4.3
> CNC[C@@H]1Oc2ccc(NC(=O)C3CCCCC3)cc2CC(=O)N([C@@H](C)CO)C[C@H]1C
    3.6[16.7 µM]	-7.3
> CNC(=O)C[C@H]1CC[C@H]2[C@H](COc3ccc(NC(=O)c4ccc(C(F)(F)F)cc4)cc3C(=O)N2C)O1
    -5.1[16.7 µM]	-2.2
> C[C@@H]1CCCCO[C@@H](CN(C)S(C)(=O)=O)[C@H](C)CN([C@@H](C)CO)C(=O)c2cc(NC(=O)NC3CCCCC3)ccc2O1
    5.0[16.7 µM]	12.1
> C[C@@H]1CCCCO[C@@H](CN(C)C(=O)NC2CCCCC2)[C@H](C)CN([C@H](C)CO)C(=O)c2cc(NC(=O)C3CCCCC3)ccc2O1
    -18.6[16.7 µM]	-4.7
> CC(=O)N(C)C[C@H]1Oc2cc(C#CC3CC3)ccc2S(=O)(=O)N([C@@H](C)CO)C[C@H]1C
    9.1[16.7 µM]	-6.5
> C[C@@H]1CN([C@@H](C)CO)S(=O)(=O)c2ccc(/C=C/c3ccccc3)cc2O[C@@H]1CN(C)C(=O)Nc1cc(F)ccc1F
    -8.4[16.7 µM]	-14.2
> COc1ccc(S(=O)(=O)Nc2ccc3c(c2)C(=O)N([C@H](C)CO)C[C@H](C)[C@@H](CN(C)Cc2ccccc2)O3)cc1
    14.5[16.7 µM]	1.4
> CC(C)NC(=O)Nc1ccc2c(c1)C(=O)N([C@H](C)CO)C[C@@H](C)[C@H](CN(C)S(C)(=O)=O)OCCCC[C@@H](C)O2
    3.9[16.7 µM]	16.6
> C[C@@H]1CCCCO[C@H](CN(C)C(=O)CCC(F)(F)F)[C@H](C)CN([C@@H](C)CO)C(=O)c2cc(NS(=O)(=O)c3cccs3)ccc2O1
    19.5[16.7 µM]	11.5
> COc1ccc(C#Cc2ccc3c(c2)O[C@@H](CN(C)C(=O)c2ccccn2)[C@H](C)CN([C@H](C)CO)S3(=O)=O)cc1
    -19.2[16.7 µM]	3.0
> C[C@H]1CN([C@@H](C)CO)C(=O)c2cc(C#Cc3cccnc3)cnc2O[C@@H]1CN(C)C
    -18.1[16.7 µM]	-7.2
> C[C@H](CO)N1C[C@H](C)[C@H](CN(C)C(=O)NC2CCCCC2)Oc2ccc(NC(=O)Nc3ccc4c(c3)OCO4)cc2C1=O
    -2.0[16.7 µM]	-1.7
> COc1ccc(CN2C[C@@H](O)COC[C@@H]3O[C@H](CC(=O)NCc4ccccc4Cl)CC[C@H]32)cc1
    0.4[16.7 µM]	-8.8
> CNC[C@@H]1Oc2cc(C#CC3CCCCC3)ccc2S(=O)(=O)N([C@@H](C)CO)C[C@@H]1C
    27.7[16.7 µM]	0.8
> C[C@@H]1CCCCO[C@@H](CN(C)C(=O)C2CCCCC2)[C@@H](C)CN([C@H](C)CO)C(=O)c2cc(NC(=O)c3ccccc3)ccc2O1
    -12.0[16.7 µM]	-2.9
> C[C@@H]1CN([C@H](C)CO)C(=O)Cc2cc(NC(=O)Nc3ccc(C(F)(F)F)cc3)ccc2O[C@@H]1CN(C)S(=O)(=O)c1cccs1
    -14.5[16.7 µM]	-8.6
> COCC#Cc1cnc2c(c1)C(=O)N([C@H](C)CO)C[C@@H](C)[C@H](CN(C)C(=O)C1CCCCC1)O2
    -0.3[16.7 µM]	9.9
> C[C@H]1CN([C@@H](C)CO)S(=O)(=O)c2ccc(C3=CCCCC3)cc2O[C@H]1CN(C)C(=O)CN(C)C
    -2.2[16.7 µM]	21.8
> O=C(N[C@H]1CC[C@@H](CCn2cc(C3(O)CCCC3)nn2)O[C@@H]1CO)c1ccccc1F
    2.9[16.7 µM]	1.2
> CN(C)CC(=O)N[C@@H]1C=C[C@@H](CC(=O)NCc2ccc(Cl)cc2)O[C@H]1CO
    5.7[16.7 µM]	-18.1
> O=C(N[C@H]1CC[C@H](CCNC(=O)C2CCC2)O[C@@H]1CO)c1ccccn1
    9.6[16.7 µM]	16.2
> C[C@H]1CN([C@@H](C)CO)C(=O)c2cc(-c3ccc(C#N)cc3)cnc2O[C@H]1CN(C)C(=O)CC1CC1
    2.5[16.7 µM]	6.7
> Cc1ccccc1S(=O)(=O)N1C[C@@H](O)COC[C@H]2O[C@H](CC(=O)N3CCN(C)CC3)CC[C@@H]21
    -9.8[16.7 µM]	11.8
> Cc1noc(C)c1S(=O)(=O)Nc1ccc2c(c1)C(=O)N([C@H](C)CO)C[C@H](C)[C@H](CN(C)Cc1ccccc1)OCCCC[C@@H](C)O2
    -24.7[16.7 µM]	-5.4
> C[C@@H]1CCCCO[C@@H](CN(C)C(=O)Nc2ccc(C(F)(F)F)cc2)[C@H](C)CN([C@H](C)CO)C(=O)c2cc(NS(=O)(=O)c3ccc(Cl)cc3)ccc2O1
    34.8[16.7 µM]	-14.6
> O=C(Nc1ccc(F)cc1)N[C@H]1C=C[C@@H](CC(=O)N2CCCCC2)O[C@H]1CO
    -7.2[16.7 µM]	3.5
> COc1ccc(NC(=O)Nc2ccc3c(c2)C(=O)N([C@H](C)CO)C[C@H](C)[C@@H](CN(C)C(=O)Nc2ccccc2)OCCCC[C@H](C)O3)cc1
    -38.6[16.7 µM]	3.0
> C[C@H]1CN([C@@H](C)CO)C(=O)Cc2cc(NC(=O)Cc3ccccc3)ccc2O[C@@H]1CN(C)CC1CC1
    23.5[16.7 µM]	-10.7
> Cc1ccc(S(=O)(=O)Nc2ccc3c(c2)C(=O)N([C@@H](C)CO)C[C@H](C)[C@@H](CN(C)C(=O)Nc2ccc(C(F)(F)F)cc2)OCCCC[C@@H](C)O3)cc1
    -10.3[16.7 µM]	-6.5

Compound profiles, as listed above. Values in the order: Env fusion inh	UUG fidelity
O=C(N[C@H]1CC[C@@H](CCn2cc(C3(O)CCCC3)nn2)O[C@@H]1CO)c1ccccc1F across the screens: 2.9[16.7 µM]	1.2
C[C@@H]1CCCCO[C@@H](CN(C)C(=O)NC2CCCCC2)[C@H](C)CN([C@H](C)CO)C(=O)c2cc(NC(=O)C3CCCCC3)ccc2O1 across the screens: -18.6[16.7 µM]	-4.7
CNC(=O)C[C@H]1CC[C@H]2[C@H](COc3ccc(NC(=O)c4ccc(C(F)(F)F)cc4)cc3C(=O)N2C)O1 across the screens: -5.1[16.7 µM]	-2.2
COc1ccc(CN2C[C@@H](O)COC[C@@H]3O[C@H](CC(=O)NCc4ccccc4Cl)CC[C@H]32)cc1 across the screens: 0.4[16.7 µM]	-8.8

(continued)
mol	Env fusion inh	UUG fidelity
C[C@@H]1CN([C@@H](C)CO)C(=O)c2cc(NC(=O)Nc3cccc4ccccc34)ccc2O[C@@H]1CN(C)C(=O)Nc1ccc2c(c1)OCO2	-17.3[16.7 µM]	7.7
COc1ccc(CN2C[C@@H](O)COC[C@@H]3O[C@@H](CC(=O)NCCN4CCCC4)CC[C@H]32)cc1	-10.9[16.7 µM]	-0.1
C[C@@H]1CN([C@@H](C)CO)C(=O)c2cc(NC(=O)Nc3ccc4c(c3)OCO4)ccc2O[C@@H]1CN(C)C(=O)Nc1ccc(C(F)(F)F)cc1	-4.5[16.7 µM]	-6.2
Cc1noc(C)c1NC(=O)Nc1ccc2c(c1)C(=O)N([C@@H](C)CO)C[C@@H](C)[C@H](CN(C)C(=O)NC1CCCCC1)O2	-23.7[16.7 µM]	-2.0
C[C@@H]1CCCCO[C@H](CN(C)Cc2ccccc2)[C@@H](C)CN([C@@H](C)CO)C(=O)c2cc(NS(=O)(=O)c3cn(C)cn3)ccc2O1	30.7[16.7 µM]	19.8
C[C@@H]1CCCCO[C@H](CN(C)S(=O)(=O)c2ccc(F)cc2)[C@@H](C)CN([C@H](C)CO)C(=O)c2cc(NC(=O)NC3CCCCC3)ccc2O1	-0.5[16.7 µM]	-3.1
Cc1noc(C)c1NC(=O)Nc1cccc2c1O[C@H](CN(C)C(=O)Nc1cccc3ccccc13)[C@H](C)CN([C@H](C)CO)C2=O	-22.8[16.7 µM]	-3.0
C[C@@H]1CN([C@@H](C)CO)C(=O)Cc2cc(N(C)C)ccc2O[C@H]1CN(C)Cc1ccccc1	22.2[16.7 µM]	6.1
COc1cccc(NC(=O)N(C)C[C@@H]2Oc3ncc(C#Cc4ccccc4)cc3C(=O)N([C@@H](C)CO)C[C@H]2C)c1	11.4[16.7 µM]	2.1
COC(=O)C[C@H]1C[C@H]2c3cc(NC(=O)NC4CCCCC4)ccc3O[C@H]2[C@@H](CO)O1	-26.6[16.7 µM]	-7.0
CN(C)CC(=O)Nc1ccc2c(c1)[C@@H]1C[C@H](CC(=O)NCc3ccncc3)O[C@@H](CO)[C@@H]1O2	-1.7[16.7 µM]	-6.8
C[C@H]1CN([C@@H](C)CO)C(=O)c2cc(-c3cccc(C#N)c3)cnc2O[C@H]1CN(C)C(=O)C1CCCCC1	-3.7[16.7 µM]	6.5
C[C@H](O)C#Cc1cnc2c(c1)C(=O)N([C@@H](C)CO)C[C@H](C)[C@@H](CN(C)C(=O)c1ccccc1)O2	-1.9[16.7 µM]	-2.6
COc1ccc(NC(=O)N[C@@H]2CC[C@@H](CCNS(=O)(=O)c3ccccc3F)O[C@H]2CO)cc1	4.5[16.7 µM]	0.7
CN(C)c1ccc2c(c1)[C@@H]1C[C@H](CC(=O)NCc3ccccc3)O[C@@H](CO)[C@@H]1O2	5.3[16.7 µM]	-4.2
O=C(CCN1CCCCC1)NCC[C@H]1CC[C@H](NC(=O)C2CCOCC2)[C@@H](CO)O1	2.8[16.7 µM]	-1.8
CO[C@@H]1CN(C)C(=O)c2cc(NS(=O)(=O)CC(F)(F)F)ccc2OC[C@H](C)N(C)C[C@H]1C	1.7[16.7 µM]	-7.7
C[C@H](CO)N1C[C@H](C)[C@H](CN(C)S(=O)(=O)c2ccc(Cl)cc2)Oc2ccc(NS(=O)(=O)c3cn(C)cn3)cc2C1=O	-60.8[16.7 µM]	-9.7
C[C@H](CO)N1C[C@H](C)[C@H](CN(C)C(=O)NC2CCCCC2)Oc2ccc(NC(=O)CCCCCC(=O)Nc3ccccc3N)cc2CC1=O	-7.7[16.7 µM]	0.9
Cc1noc(C)c1NC(=O)N(C)C[C@H]1Oc2cc(C#CCN(C)C)ccc2S(=O)(=O)N([C@H](C)CO)C[C@@H]1C	9.8[16.7 µM]	3.3
C[C@@H]1CN([C@H](C)CO)C(=O)c2cc(NC(=O)Nc3ccccc3)ccc2O[C@@H](C)CCCCO[C@@H]1CN(C)Cc1ccc(C(=O)O)cc1	-30.9[16.7 µM]	-0.6
O=C(C[C@H]1C[C@@H]2c3cc(NC(=O)Nc4ccc(F)cc4)ccc3O[C@@H]2[C@H](CO)O1)NC1CCCCC1	-7.3[16.7 µM]	-15.0
COc1ccc(NC(=O)Nc2ccc3c(c2)CC(=O)N([C@@H](C)CO)C[C@@H](C)[C@H](CN(C)Cc2ccc(C(F)(F)F)cc2)O3)cc1	60.5*[16.7 µM]	20.9
COc1ccc(-c2cn(CC[C@H]3CC[C@@H](NC(=O)Cc4ccccn4)[C@@H](CO)O3)nn2)cc1	20.8[16.7 µM]	-3.0
CO[C@@H]1CN(C)C(=O)c2ccc(NC(=O)NC(C)C)cc2OC[C@H](C)N(C(=O)C2CCC2)C[C@H]1C	13.7[16.7 µM]	-6.0
C[C@@H](NC(=O)C[C@@H]1C=C[C@@H](NC(=O)CN2CCOCC2)[C@@H](CO)O1)c1ccccc1	-14.4[16.7 µM]	-2.6
COc1ccc(NC(=O)Nc2ccc3c(c2)C(=O)N([C@H](C)CO)C[C@H](C)[C@H](CN(C)C(=O)C2CCCCC2)OCCCC[C@H](C)O3)cc1	?	5.9
C[C@@H]1CN([C@@H](C)CO)C(=O)c2cc(NC(=O)Nc3ccc(C(F)(F)F)cc3)ccc2O[C@@H](C)CCCCO[C@H]1CN(C)C(=O)C1CCCCC1	34.1[16.7 µM]	-16.9
N#C[C@H]1N[C@H](CO)[C@@H]1c1ccc(C#CC2CCCC2)cc1	-4.2[16.7 µM]	19.3
CO[C@H]1CN(C)C(=O)c2cc(NS(=O)(=O)c3ccc(Cl)cc3)ccc2OC[C@@H](C)N(C)C[C@H]1C	-2.8[16.7 µM]	26.9

(list continues)
mol	Env fusion inh	UUG fidelity
O=C(NCC[C@H]1CC[C@H](NS(=O)(=O)c2cccc(F)c2)[C@H](CO)O1)C1CCC1	11.8[16.7 µM]	19.1
CCCN(C)C[C@@H]1Oc2ncc(-c3cccc(C#N)c3)cc2C(=O)N([C@H](C)CO)C[C@H]1C	10.8[16.7 µM]	-4.6
COc1ccc(S(=O)(=O)N(C)C[C@H]2OCCCC[C@@H](C)Oc3ccc(NC(=O)Nc4ccc(F)cc4)cc3C(=O)N([C@@H](C)CO)C[C@H]2C)cc1	-21.7[16.7 µM]	-1.5
COc1ccc(NC(=O)Nc2ccc3c(c2)CC(=O)N([C@H](C)CO)C[C@@H](C)[C@H](CN(C)S(=O)(=O)c2cccs2)O3)cc1	-6.2[16.7 µM]	-1.0
COCC(=O)N(C)C[C@@H]1Oc2cc(C#CCC(C)C)ccc2S(=O)(=O)N([C@@H](C)CO)C[C@@H]1C	2.1[16.7 µM]	0.6
Cc1noc(C)c1S(=O)(=O)Nc1ccc2c(c1)C(=O)N([C@H](C)CO)C[C@@H](C)[C@H](CN(C)C(=O)Cc1ccccc1)OCCCC[C@@H](C)O2	-61.2[16.7 µM]	9.0
O=C(C[C@@H]1C=C[C@@H](NC(=O)Nc2cc(F)ccc2F)[C@@H](CO)O1)Nc1ccccc1	-23.0[16.7 µM]	-15.8
COc1ccc(S(=O)(=O)Nc2ccc3c(c2)C(=O)N([C@@H](C)CO)C[C@H](C)[C@H](CN(C)Cc2ccc4c(c2)OCO4)OCCCC[C@@H](C)O3)cc1	-128.1[16.7 µM]	13.8

Assay outcomes deposited in PubChem BioAssay by Broad Institute.
